Compound activity (PubChem BioAssay)
2A StopGo: High Throughput Screening for Foot and Mouth Disease Virus Antivirals; human cells with a luciferase reporter of 2A StopGo recoding; control for the full effect not named in the record; Potency, µM (top dose mostly 57.9 µM), inactives show top-dose signal change, negative = less light; actives 1.2% (n = 410,000); AID 1159524, 2015; active = well fitted falling curve with a large enough effect; inconclusive = small, poorly fitted or top-dose-only effect; inactive = no such curve, though single readings can be large or run the other way; tested in HEK293T cells; note: % is set by controls: 0 for no effect and ±100 for the full control effect; nearly all actives have a fitted effect of over 45% in size; luciferase light after 4 h
RE007 growth inh: qHTS Assay for Inhibitors of the HIV-1 protein Vpr; S. pombe RE007 Vpr strain, BacTiter-Glo ATP luminescence, 24 h; control for the full effect not named in the record; Potency, µM (titrated, usually from 92.2 µM), for inactives: at the highest dose activity change, negative = less growth; actives 0.21% (n = 360,000); AID 651644, 2012; active = well fitted falling curve with a large enough effect; inconclusive = small, poorly fitted or top-dose-only effect; inactive = no such curve, though single readings can be large or run the other way;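 note: % is set by controls: 0 for no effect and ±100 for the full control effect; nearly all actives have a fitted effect of over 50% in size; the assay follows cell death caused by Vpr and the record does not say whether a fall means rescue or toxicity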
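Fission yeast strain RE007, carrying one chromosomally integrated HIV-1 vpr copy, was seeded at OD 0.01 in PMG+AL medium with 23 nL pinned compound. After 24 h at 30 °C and 99% humidity, viability was read by BacTiter-Glo luminescence.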
SARS PLpro yeast: qHTS of Yeast-based Assay for SARS-CoV PLP. actives 0.19% (n = 330,000). Potency, µM (doses to about 32.9 µM), for the others: top-dose activity, positive = growth rescue. S. cerevisiae expressing SARS-CoV PLpro, growth rescue; control for the full effect not named in the record. AID 485353, 2010; active means well fitted rising curve with a large enough effect; inconclusive means small, poorly fitted or top-dose-only effect; inactive means no such curve, though single readings can be large or run the other way; note: 0% is about no effect; nearly all actives have a fitted effect of over 55% in size; growth read by luminescence after 48 h
Active calls of the source: *; ? = inconclusive; [ ] = remark or other dose. Potency is the fitted concentration of half-maximal effect. A portion of the library, so the mix of outcomes need not match the whole.

SMILES	2A StopGo	RE007 growth inh	SARS PLpro yeast
O=C(NC1CCCC1)c1cccc(S(=O)(=O)Nc2ccccc2F)c1	9%	2%	0%
CC(C)(C)NC(=O)C[C@H]1C[C@H](C(=O)N2CCOCC2)[C@@]2(C)c3[nH]c4cc(-c5ccco5)ccc4c3CCN2C1=O	-24%	-11%	-13%
O=C1N[C@@H](Cc2ccccc2)C(=O)N2[C@H]1C[C@]1([C@]34C[C@H]5C(=O)N[C@@H](Cc6ccccc6)C(=O)N5[C@H]3N(S(=O)(=O)c3ccccc3)c3ccccc34)c3ccccc3N(S(=O)(=O)c3ccccc3)[C@H]21	-9%	11%	-2%
CCN(Cc1ccncc1)C(=O)c1cccc(S(=O)(=O)N2CCCCC2)c1	-13%	-7%	-1%
COc1ccc([C@@H]2CC=C(C(=O)O)[C@H](c3ccc(F)cc3)N2S(=O)(=O)c2ccccc2C)cc1	21%	-11%	7%
COC(=O)[C@@]1(Cc2ccccc2)[C@H]2C(=O)N(Cc3ccccc3)C(=O)[C@H]2[C@H]2CN=C(SCc3ccc(C)cc3)N21	?	-16%	-29%
O=C(NN=Cc1cccc([N+](=O)[O-])c1)c1cc(-c2cccnc2)nc2ccccc12	28µM*	-12%	2%
O=C(NCC(c1ccc(F)cc1)N1CCOCC1)c1ccc(-c2ccccc2)cc1 (stereo not drawn)	?	0%	6%
CCCCC1CCc2[nH]nc(C(=O)O)c2C1 (stereo not drawn)	-17%	5%	2%
Cc1cc(C)c2nc(N3C(=O)C(O)=C(C(=O)c4ccco4)C3c3ccc(O)cc3)sc2c1 (stereo not drawn)	-8%	-10%	-7%
C/C=C(/C)C(=O)O[C@@H]1c2c(ccc3ccc(=O)oc23)OC(C)(C)[C@@H]1OC(C)=O	-15%	1%	-5%
COc1ccc(OCC(=O)N2CCN(S(=O)(=O)c3ccc(Cl)s3)CC2)cc1	-24%	1%	7%
CCCCNc1c(-c2ccc(OC)c(SC(C)CC)c2)nc2cc(C)ccn12 (stereo not drawn)	28µM*	-19%	15%
O=C(Cc1ccc2c(c1)OCCO2)Nc1cccc(S(=O)(=O)N2CCOCC2)c1	18%	10%	-6%
CC(Sc1nnc(-c2ccncc2)n1-c1ccc(F)cc1)C(=O)NC1CC1 (stereo not drawn)	-11%	-17%	2%
CC[C@@]1(C(=O)OC)N[C@H](CN(C)S(=O)(=O)c2ccccc2)[C@@H]2C(=O)N(Cc3ccccc3)C(=O)[C@@H]21	14%	-3%	4%
Cc1ccccc1S(=O)(=O)N1[C@@H](c2ccc(F)cc2)C(C(=O)O)=CC[C@H]1c1ccc(Cl)cc1	-15%	6%	-3%
N=C1c2ccccc2CN1NC(=O)COc1ccc(Cl)cc1	-10%	-14%	0%
CCOc1ccc(S(=O)(=O)NCCC(=O)NCC(c2ccco2)N2CCCCC2)cc1 (stereo not drawn)	-16%	-14%	-7%
CCCCNS(=O)(=O)CCNCc1ccccc1OC	-4%	-21%	9%
C[C@H]1[C@H](C)CC[C@]2(C)CC[C@]3(C)C(=CC(=O)C4[C@@]5(C)CC[C@H](O)C(C)(C)C5CC[C@]43C)[C@H]12 (stereo partly drawn)	-18%	5%	-3%
COCc1c(C(=O)N2CCN(Cc3ccc4c(c3)OCO4)CC2)oc2ccccc12	0%	-8%	-16%
COC(=O)C1=C(c2ccc(OC(F)(F)F)cc2)C[C@@H]2CC[C@H]1N2C(=O)NCCCOC(C)C	-13%	?	0%
COc1ccc(N2CCN(C(=O)CCNC(=O)Cn3ccc4ccccc4c3=O)CC2)cc1	0%	6%	-3%
CCN(C(=O)CN1CCCCC1)c1c(N)n(Cc2ccccc2)c(=O)[nH]c1=O	2%	3%	-10%
Following part:
SMILES	2A StopGo	RE007 growth inh	SARS PLpro yeast
CCOc1ccc(NC(=O)CN(C)C(=O)c2nc3nc(C)cc(C)n3n2)cc1OCC	-15%	11%	-7%
CC(C)N(Cc1ccccc1)C(=O)COC(=O)c1ccc(O)cc1	-16%	-11%	-2%
Oc1ccc(C[C@H]2CNCCN2CCc2cc(C(F)(F)F)cc(C(F)(F)F)c2)cc1	-24%	0%	1%
CC1Cc2ccccc2N1S(=O)(=O)c1cccc(C(=O)NNC(=O)c2ccccc2F)c1 (stereo not drawn)	-1%	-8%	-3%
O=C1[C@H]2[C@@H](c3ccc(F)cc3)N3C(=O)N(c4cccc(Br)c4)C(=O)[C@@]3(Cc3ccccc3)[C@H]2C(=O)N1C1CCCCC1	-19%	-4%	-1%
O=S(=O)(c1ccc(Cl)nc1)N1CCC(Cc2ccccc2)CC1	-10%	15%	0%
CCC(CO)Oc1cc(NC(=O)c2cccc3ccccc23)c2ncn(C(C)C)c2c1 (stereo not drawn)	-27%	1%	13%
O=C1N[C@@H](Cc2c[nH]c3ccccc23)COC(=O)[C@@H](Cc2ccc(F)cc2)C/C=C\C[C@H]1CC(=O)N(CCO)Cc1ccccc1	?	5%	9%
COc1ccc(-c2nnc(SCC(=O)N/N=C/c3ccccc3C(=O)O)n2-c2ccccc2)cc1	-13%	7%	22%
CC(C)CNC(=O)/C=C/C=C/CCCCCC/C=C/c1ccc2c(c1)OCO2	-16%	11%	5%
COc1ccc(Cl)cc1NC(=O)Nc1ccccc1C(N)=O	1%	6%	-1%
Cc1ccc(C(=O)N2CCN(S(=O)(=O)c3ccccc3[N+](=O)[O-])CC2)o1	-23%	0%	4%
O=C(OCC(=O)c1ccc(Cl)s1)c1cncc(Br)c1	0%	3%	4%
COc1ccc(NC(C)=O)cc1S(=O)(=O)NCCc1ccccn1	-8%	-3%	-2%
O=C1[C@H]2[C@@H](c3ccc(F)cc3)N3C(=O)N(c4cccc(F)c4)C(=O)[C@@]3(Cc3ccc(Cl)cc3)[C@H]2C(=O)N1C1CCCCC1	-17%	6%	-1%
CC1CCN(C(=O)c2[nH]cnc2C(=O)Nc2ccc(Cl)cc2)CC1	-3%	-3%	-1%
O=C(COC(=O)c1cc(S(=O)(=O)N2CCCCC2)ccc1Cl)NC1CCS(=O)(=O)C1 (stereo not drawn)	-11%	6%	-5%
CSCCC(NC(=O)c1ccccc1Br)C(=O)N1CCN(C(C)=O)CC1 (stereo not drawn)	-15%	-7%	-3%
CC(C)(O)C1CC[C@@](C)([C@@H]2CC[C@]3(C)[C@H]2[C@H](O)CC2[C@@]4(C)CCC(O)C(C)(C)C4C(OC4OC(CO)C(O)C(O)C4O[C@@H]4OCC(O)C(O)C4O)C[C@]23C)O1 (stereo partly drawn)	-11%	-5%	8%
O=C1CCN(Cc2ccccc2)S(=O)(=O)c2ccc(F)cc21	2%	3%	-2%
Cc1ccc(-c2ccc3nnc(SCC(=O)NCC4CCCO4)n3n2)cc1 (stereo not drawn)	-3%	1%	3%
COc1ccccc1C(=O)NCCC(=O)Nc1ccc(S(=O)(=O)N2CCCC(C)C2)cc1 (stereo not drawn)	-12%	8%	-6%
CC(NC(=O)Cc1cccc2ccccc12)C(=O)N1CCC(=O)CC1 (stereo not drawn)	-18%	12%	0%
C#CCOCCOCCOCCNc1nc(N2CCN(C(=O)Cn3cc(CCCN=C(N)N)nn3)CC2)nc(N2CCN(C(=O)[C@H](CCCCN)n3cc(CC(C)O)nn3)CC2)n1 (stereo partly drawn)	-11%	0%	-1%
CCN(C[C@H]1N[C@@](Cc2ccccc2)(C(=O)OC)[C@H]2C(=O)N(C)C(=O)[C@@H]12)C(=O)c1ccc(C)cc1	?	6%	-2%
The listing continues:
SMILES	2A StopGo	RE007 growth inh	SARS PLpro yeast
O=C(CSc1ccccc1)Nc1cccc(S(=O)(=O)N2CCOCC2)c1	35%[activator]	-4%	0%
CC(C)n1ncc2c(C(=O)NCC(=O)Nc3ccccc3Br)cc(C3CC3)nc21	-26%	4%	-1%
COc1ccc([C@H]2CC(=O)C=C(c3ccc(SC)cc3)C2)cc1OC	?	2%	-7%
Cc1ccc(S(=O)(=O)N2[C@@H](c3ccc(Br)cc3)C(C(=O)O)=C[C@H]2CC2CCCC2)cc1	-19%	11%	1%
O=C(COC(=O)c1ccc(OC(F)F)cc1)NC(=O)NC1CCCC1	-16%	2%	1%
COc1ccc(Cl)cc1NC(=O)CN(C)C(=O)c1cn2ccccc2n1	-5%	-3%	-6%
Cc1oc2c(c1C(=O)N1CCOCC1)C(=O)c1ccccc1C2=O	?	-13%	9%
CC(C)(C)OC(=O)N1CCN(C(=O)c2[nH]cnc2C(=O)NCc2ccccc2)CC1	7%	10%	-1%
CN(Cc1ccccc1)C(=O)COC(=O)c1ccc(Br)c(S(=O)(=O)N2CCOCC2)c1	?	-9%	-1%
CSC1=N/C(=C\c2ccccc2C)C(=O)S1	-19%	-9%	1%
COc1ccc([C@H]2CC(=O)C=C(c3cccc(C#N)c3)C2)cc1	-4%	19%	1%
O=C(COC(=O)c1ccc(Br)o1)NCc1ccccc1Cl	-11%	5%	0%
O=S(=O)(Nc1cc(Cl)ccc1-n1cncn1)c1cc(Br)ccc1Br	-6%	3%	3%
CC[C@@H]1C=C(C(=O)O)[C@H](c2ccc(F)cc2)N1S(=O)(=O)c1ccc(C)cc1	-11%	6%	0%
CCC(=O)N/N=C(\C)CC(=O)Nc1ccc(F)cc1	4%	-8%	-1%
CC(=O)Nc1ccc(C(=O)COC(=O)c2ccco2)c(F)c1	52%[activator]	10%	-3%
COc1cc2c(c(OC)c1OC)-c1ccc(O)c(=O)cc1[C@@H](N)CC2	0%	-13%	-7%
O=c1cc(-c2ccc(OCc3ccccc3)cc2)oc2cc(OCc3ccccc3)cc(OCc3ccccc3)c12	-4%	3%	-5%
CC(Sc1nnc(C2CC2)n1C1CC1)C(=O)N(C)C1(C#N)CCCCC1 (stereo not drawn)	-8%	14%	3%
O=C(C[C@@H]1C/C=C\C[C@H](NC(=O)OCC2c3ccccc3-c3ccccc32)C(=O)O[C@H](c2ccccc2)CNC1=O)NCCO	-26%	-10%	0%
CCOC(=O)c1[nH]cnc1C(=O)NC1CCN(C(=O)OC(C)(C)C)CC1	-15%	2%	2%
CCN(C(=O)COC(=O)c1cccnc1SC)C1CCCCC1	-15%	-12%	-4%
O=C(CCCOc1ccccc1)Nc1cc(S(=O)(=O)N2CCOCC2)ccc1N1CCOCC1	5%	-11%	2%
O=C(C[C@H]1C[C@H](C(=O)N2CCOCC2)[C@@]2(CCC3CCCC3)c3[nH]c4cc(-c5ccco5)ccc4c3CCN2C1=O)NCCCn1ccnc1	-10%	10%	-5%
O=C(CN1CCN(c2ccccc2O)CC1)NC(=O)NCc1ccccc1	-12%	4%	9%
Next section.
SMILES	2A StopGo	RE007 growth inh	SARS PLpro yeast
O=C(CN1CCN(CC(=O)Nc2ccccc2Cl)CC1)NCC1(N2CCCCC2)CCCCC1	-10%	-22%	0%
CC(C)[C@H](NS(=O)(=O)c1ccccc1)C(=O)OCC(=O)NC1CCCCC1	3%	3%	1%
C=CCn1c(SCC(=O)NC2(C)CCS(=O)(=O)C2)nc2ccccc21 (stereo not drawn)	0%	1%	0%
CCN(c1ccc(NC(=O)CSCc2c(C)noc2C)cc1)C(C)C	7%	-3%	0%
CN(C)c1ccc(S(=O)(=O)N2CCCCC2)cc1NC(=O)CCNC(=O)c1ccco1	-23%	5%	-3%
CCCN1CCN(C(=O)c2ccc(F)c(S(=O)(=O)N3CCOCC3)c2)CC1	-8%	3%	5%
Cc1ccc(NC(=O)C2CSC3(C)CCC(=O)N23)cc1S(=O)(=O)N1CCCCCC1 (stereo not drawn)	?	10%	4%
CCN(CC(=O)Nc1ccccc1C(F)(F)F)C(=O)Cc1cccs1	8%	-12%	-4%
O=C(CN1C(=O)NC2(CCc3ccccc32)C1=O)NCc1ccccc1Cl (stereo not drawn)	-12%	22%	-1%
O=c1oc(CCO)cc2ccc(C#Cc3ccsc3)cc12	25%	-16%	-1%
COc1ccc(CCNC(=O)/C=C/c2ccc(S(=O)(=O)N3CCOCC3)cc2)cc1	-18%	17%	-2%

Reformatted with bars between the fields: part of the list above.
SMILES | 2A StopGo | RE007 growth inh | SARS PLpro yeast
CCN(c1ccc(NC(=O)CSCc2c(C)noc2C)cc1)C(C)C | 7% | -3% | 0%
CN(C)c1ccc(S(=O)(=O)N2CCCCC2)cc1NC(=O)CCNC(=O)c1ccco1 | -23% | 5% | -3%
CCCN1CCN(C(=O)c2ccc(F)c(S(=O)(=O)N3CCOCC3)c2)CC1 | -8% | 3% | 5%

Arranged by number of heavy atoms (high to low): three of the compounds above.
SMILES	2A StopGo	RE007 growth inh	SARS PLpro yeast
CN(C)c1ccc(S(=O)(=O)N2CCCCC2)cc1NC(=O)CCNC(=O)c1ccco1	-23%	5%	-3%
Cc1ccc(NC(=O)C2CSC3(C)CCC(=O)N23)cc1S(=O)(=O)N1CCCCCC1 (stereo not drawn)	?	10%	4%
CC(C)[C@H](NS(=O)(=O)c1ccccc1)C(=O)OCC(=O)NC1CCCCC1	3%	3%	1%
